# Compound activity: PubChem, National Center for Advancing Translational Sciences (NCATS)
# NS1 inh = inhibitors of influenza NS1 protein function; hit rate 0.4% among 270,000; Potency, µM (highest dose often 46.1 µM), inactives show at the top dose activity, positive = more growth; S. cerevisiae slowed by influenza A NS1, growth recovery by OD600; further: actives are rising curves; nearly all actives have a fitted effect of over 50% in size
#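 OD600 was taken as the measure of yeast growth restored by compound in an NS1-expressing S. cerevisiae strain. Cells had been washed out of glucose medium and diluted 1:100 into galactose -URA medium, pH 6.0.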
# StopGo reporter = FMDV 2A StopGo reporter, luciferase signal; human cells with a luciferase reporter of 2A StopGo recoding; control for the full effect not named in the record; Potency, µM (series often up to 57.9 µM), inactives show at the highest dose signal change, negative = less light; hit rate 1.2% among 410,000; active = well fitted falling curve with a large enough effect; inconclusive = small, poorly fitted or top-dose-only effect; inactive = no such curve, though single readings can be large or run the other way; tested in HEK293T cells; further: on the % scale 0 is the no-effect control and ±100 the full control effect; nearly all actives have a fitted effect of over 45% in size; luciferase light after 4 h
# Lassa entry inh = inhibitors of Lassa virus binding or cell entry; Potency, µM (series often up to 37.9 µM), without a hit: at the top dose activity change, negative = inhibition, hits mostly inhibitors; Lassa virus pseudotype entry inhibition, cell reporter; control for the full effect not named in the record; hit rate 1.2% among 300,000; AID 540256; active means well fitted inhibition curve with a large enough effect; inconclusive means small, poorly fitted or top-dose-only effect, or effect the other way; inactive means flat fitted curve, though single readings scatter; tested in HEK293 cells; further: on the % scale 0 is the no-effect control and ±100 the full control effect; nearly all actives have a fitted effect of over 50% in size; luciferase read-out
# Cruzain inh noDet = cruzain (T. cruzi) inhibition without detergent; P25779; purified cruzain, Z-FR-AMC fluorescence, no detergent; Potency, µM, without a hit: max response, negative = inhibition, usual class: inhibitors; hit rate 2.3% among 200,000; AID 1476; active means well fitted curve in the direction sought with a large enough effect; inconclusive means small, poorly fitted or top-dose-only effect, or another doubt; inactive means no such curve, though single readings can be large; an effect the other way counts as inactive or inconclusive;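 further: plate controls were enzyme without inhibitor for no effect and buffer without enzyme for full effect; nearly all actives have a fitted effect of over 40% in size; top concentration of the series not given in the record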
# Target sequence (P25779 123-467 limits assumed): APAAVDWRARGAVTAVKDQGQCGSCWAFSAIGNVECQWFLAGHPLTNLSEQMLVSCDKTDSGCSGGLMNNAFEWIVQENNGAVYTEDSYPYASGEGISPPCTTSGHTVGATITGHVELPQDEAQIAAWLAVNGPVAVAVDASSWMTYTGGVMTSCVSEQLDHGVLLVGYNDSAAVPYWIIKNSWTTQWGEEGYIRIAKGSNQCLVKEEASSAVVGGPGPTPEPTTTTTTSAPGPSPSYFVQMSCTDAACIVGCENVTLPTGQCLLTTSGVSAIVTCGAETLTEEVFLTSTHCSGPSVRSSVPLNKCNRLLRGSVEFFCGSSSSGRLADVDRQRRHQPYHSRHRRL
#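 Purified cruzain at 1.5 nM, pre-incubated 15 min with compound at room temperature in 100 mM sodium acetate pH 5.5, 5 mM DTT, 0.00005% Triton X-100. Reaction started with 2 uM Z-FR-AMC; AMC fluorescence increase over 60 s gives rate.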
# MARV entry inh = blocks Marburg virus binding to or entry into cells. Marburg virus pseudotyped entry inhibition, cell reporter; control for the full effect not named in the record; about a third of the inactives were read at about 46 µM. Potency, µM (series often up to 37.8 µM), without a hit: top-dose activity change, negative = inhibition, actives largely listed as inhibitors. hit rate 1.8% among 300,000. AID 540276; active = well fitted inhibition curve with a large enough effect; inconclusive = small, poorly fitted or top-dose-only effect, or effect the other way; inactive = flat fitted curve, though single readings scatter; tested in HEK293 cells; about a fifth of its hits are not listed in these tables; further: on the % scale 0 is the no-effect control and ±100 the full control effect; luciferase read-out
# Cruzain inh Det = inhibitors of Trypanosoma cruzi cruzain with detergent. purified cruzain, Z-FR-AMC fluorescence, 0.01% Triton. Potency, µM, for the others: max response, negative = inhibition, hits mostly inhibitors. hit rate 0.43% among 200,000. AID 1478; active means well fitted curve in the direction sought with a large enough effect; inconclusive means small, poorly fitted or top-dose-only effect, or another doubt; inactive means no such curve, though single readings can be large; an effect the other way counts as inactive or inconclusive;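 further: plate controls were neutral wells for no effect and buffer without enzyme for full effect; nearly all actives have a fitted effect of over 40% in size; top concentration of the series not given in the record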
#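 Cysteine protease activity tested under reducing, mildly acidic conditions (100 mM sodium acetate pH 5.5, 5 mM DTT) plus 0.01% Triton X-100. Cruzain 1.5 nM; substrate Z-FR-AMC 2 uM; 15 min compound preincubation at room temperature.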
# RE007 growth inh = less growth of the S. pombe RE007 Vpr strain; hit rate 0.21% among 360,000; Potency, µM (highest dose often 92.2 µM), for inactives: top-dose activity change, negative = less growth; S. pombe RE007 Vpr strain, BacTiter-Glo ATP luminescence, 24 h; control for the full effect not named in the record; active = well fitted falling curve with a large enough effect; inconclusive = small, poorly fitted or top-dose-only effect; inactive = no such curve, though single readings can be large or run the other way;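 further: on the % scale 0 is the no-effect control and ±100 the full control effect; nearly all actives have a fitted effect of over 50% in size; the assay follows cell death caused by Vpr and the record does not say whether a fall means rescue or toxicity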
#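 Fission yeast strain RE007, carrying one chromosomally integrated HIV-1 vpr copy, was seeded at OD 0.01 in PMG+AL medium with 23 nL pinned compound. After 24 h at 30 °C and 99% humidity, viability was read by BacTiter-Glo luminescence.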
# SARS PLP yeast = SARS-CoV PLP inhibition in yeast; hit rate 0.19% among 330,000; Potency, µM (doses to about 32.9 µM), inactives show at the top dose activity, positive = growth rescue; AID 485353; S. cerevisiae expressing SARS-CoV PLpro, growth rescue; control for the full effect not named in the record; further: 0% is about no effect; nearly all actives have a fitted effect of over 55% in size; growth read by luminescence after 48 h
# Numbers without * were called inactive; ? = inconclusive; . = not tested or not shown; & = joins results of further samples; [ ] = remark or other dose. Unless noted, the call rests on the fitted dose curve; in most records, active means well fitted rising curve with a large enough effect; inconclusive means small, poorly fitted or top-dose-only effect; inactive means no such curve, though single readings can be large or run the other way. Potency means the concentration at half of the fitted maximal effect.
SMILES,NS1 inh,StopGo reporter,Lassa entry inh,Cruzain inh noDet,MARV entry inh,Cruzain inh Det,RE007 growth inh,SARS PLP yeast
Cc1cc(C)cc(N(CC(=O)NCc2ccccc2)C(=O)CCC(=O)Nc2ccccn2)c1,-1%,-1%,?,.,-15%[46.1 µM],.,23%,0%
CC(C)(CNS(=O)(=O)c1ccc2c(c1)OCCO2)N1CCOCC1,1%,13%,.,.,.,.,11%,2%
O=C(c1cccc(S(=O)(=O)N2CCCC2)c1)N1CCN(c2ccccc2F)CC1,4%,6%,-15%,10%,?,3.7%,-9%,3%
CCC(C)c1ccccc1N1CC(C(=O)Nc2ccc(C)c(S(=O)(=O)N3CCOCC3)c2)CC1=O (stereo not given),.,?,0%,.,?,.,6%,2%
C/C(N)=C(/C#N)C(=O)CSc1nnnn1-c1ccc(C)cc1,-7%,48%[activator],9%,7%,?,2.2%,-3%,0%
CCOc1ccc(N(CC(=O)NCC2CCCO2)C(=O)CCC(=O)Nc2ccccn2)cc1 (stereo not given),-7%,-2%,-22%,-10%,7%,-0.4%,6%,12%
COCCNC(=O)c1c(NC(=O)c2cc(=O)c3cc(Cl)ccc3o2)sc2c1CCCC2,.,-16%,19%[46.1 µM],-13%,?,-1.2%,.,.
CC(=O)Nc1ccc(C(=O)Nc2cc(C(F)(F)F)ccc2-n2cnc3ccccc32)cc1,-1%,-4%,-2%,?,?,-9.4%,3%,18%
CC1=C(C)CC(C(=O)Nc2ccc3c(c2)OCO3)C(C(=O)O)C1 (stereo not given),0%,2%,-3%[46.1 µM],.,29%[46.1 µM],.,-2%,0%
COc1ccc(/C=N/NC(=O)c2ccccc2O)cc1CN1CCOCC1,0%,-5%,-2%,.,13%[46.1 µM],.,-10%,4%
CCOC(=O)c1c(C)[nH]c(C(=O)OCC(=O)NC2(C#N)CCCCC2)c1C,.,-29%,?,.,-15%,.,10%,-1%
COc1ccc(C(=O)c2cccc(C(=O)c3ccc(OC)c(C)c3)c2)cc1C,1%,-1%,2%,.,24%[46.1 µM],.,-5%,-3%
Brc1ccc2c(c1)OCCOCCOc1cc(Br)ccc1OCCOCCOCCO2,-20%,?,?,?,?,0.7%,?,-37%
O=C(CSc1nc2ccccc2s1)NNC(=S)Nc1ccc(Br)cc1,?,6%,6%,-22%,-11%,-5.4%,43%,4%
COc1ccccc1NS(=O)(=O)c1cc(C(=O)NCCN2CCOCC2)ccc1Cl,2%,.,11%,5%,1%&-21%,3.0%,2%,-2%
CCOc1ccc(N2CC(C(=O)Nc3cc(OCC)c(N4CCOCC4)cc3OCC)CC2=O)cc1 (stereo not given),.,-19%,24%,.,?,.,-5%,2%
COc1cc(C(=O)NCCCC2CCCC2)ccc1OC1CCN(C(C)=O)CC1,0%,?,-1%,.,-1%,.,0%,-5%
Cc1ccc(-c2csc(Cc3nc(-c4cc5ccccc5oc4=O)cs3)n2)cc1,8%,.,-54%,6.3µM*,?,2.2%,3%,-2%
COc1ccc(-n2nc(C(=O)NCC(=O)NCCCN3CCC(C)CC3)c3ccccc3c2=O)cc1Cl,-2%,-8%,-24%,.,0%[46.1 µM],.,-17%,-2%
COc1ccc(NC(=O)CN2CCOCC2)cc1S(=O)(=O)N1CCCCC1,.,14%,10%,.,10%,.,1%,?
c1ccc(Nc2nc(N3CCOCC3)c3ccccc3n2)cc1,-30%,11µM*,-30%,13µM*,13µM*,14µM*,-12%,4%
COc1cccc(/C=N/n2nnnc2N)c1OCC#N,.,1%,4%,.,-12%,.,1%,.
C=CCSc1nc(N(CC)CC)c2sccc2n1,-33%,-21%,1%,-7%,5%,-3.5%,-7%,-8%
CC1(C)CC2(CCCN(C(=S)Nc3ccccc3)C2)CCO1 (stereo not given),-4%,-3%,1%,.,10%,.,2%,0%
COc1ccc(CC(=O)Nc2cc(S(=O)(=O)N3CCOCC3)ccc2N2CCOCC2)cc1,.,26%,3%,.,17%[46.1 µM],.,3%,0%
# Additional records follow:
SMILES,NS1 inh,StopGo reporter,Lassa entry inh,Cruzain inh noDet,MARV entry inh,Cruzain inh Det,RE007 growth inh,SARS PLP yeast
CC1CCc2sc3ncnc(N4CCN(C)CC4)c3c2C1 (stereo not given),9%,-12%,-19%,.,?,.,-26%,0%
C/C(=N\NC(=O)COc1ccc(C(C)(C)C)cc1)c1ccc(-n2ccnc2)cc1,-15%,?,?,7%,8%,-7.9%,-4%,-47%
Nc1nc(-c2ccco2)nn1C(=O)c1ccccc1Cl,.,-12%,-6%,.,11%[46.1 µM],.,3%,-4%
O=C(N/N=C\c1c(O)ccc2ccccc12)c1ccc(O)cc1,6%,26%,.,.,.,.,10%,13µM*
COc1ccccc1N/C(N)=N/c1nc(CSc2nc3ccccc3s2)cc(=O)[nH]1,7%,.,.,?,-3%,-3.3%,.,?
COc1cnn(-c2cccc(C)c2)c(=O)c1Cl,10%,12%,.,.,.,.,2%,4%
CN1CCN(C(CNC(=O)Nc2ccc(Cl)cc2)c2ccc(F)cc2)CC1 (stereo not given),-12%,-2%,.,.,.,.,2%,-4%
Nc1nnc(SCC(=O)Nc2cccc(F)c2)s1,.,11%,-6%[46.1 µM],-4%,?,-6.2%,.,.
CCOc1ccc(N2CC(NC(=O)C(=O)c3c[nH]c4ccccc34)CC2=O)cc1 (stereo not given),.,-14%,-7%[46.1 µM],-14%,.,-3.8%,.,.

# Reformatted as labelled records: entries from further up
> Nc1nc(-c2ccco2)nn1C(=O)c1ccccc1Cl
- NS1 inh = .
- StopGo reporter = -12%
- Lassa entry inh = -6%
- Cruzain inh noDet = .
- MARV entry inh = 11%[46.1 µM]
- Cruzain inh Det = .
- RE007 growth inh = 3%
- SARS PLP yeast = -4%
> O=C(N/N=C\c1c(O)ccc2ccccc12)c1ccc(O)cc1
- NS1 inh = 6%
- StopGo reporter = 26%
- Lassa entry inh = .
- Cruzain inh noDet = .
- MARV entry inh = .
- Cruzain inh Det = .
- RE007 growth inh = 10%
- SARS PLP yeast = 13µM*
> COc1ccccc1N/C(N)=N/c1nc(CSc2nc3ccccc3s2)cc(=O)[nH]1
- NS1 inh = 7%
- StopGo reporter = .
- Lassa entry inh = .
- Cruzain inh noDet = ?
- MARV entry inh = -3%
- Cruzain inh Det = -3.3%
- RE007 growth inh = .
- SARS PLP yeast = ?
> COc1cnn(-c2cccc(C)c2)c(=O)c1Cl
- NS1 inh = 10%
- StopGo reporter = 12%
- Lassa entry inh = .
- Cruzain inh noDet = .
- MARV entry inh = .
- Cruzain inh Det = .
- RE007 growth inh = 2%
- SARS PLP yeast = 4%

# Filtered by structure, those above containing bromine.
SMILES,NS1 inh,StopGo reporter,Lassa entry inh,Cruzain inh noDet,MARV entry inh,Cruzain inh Det,RE007 growth inh,SARS PLP yeast
Brc1ccc2c(c1)OCCOCCOc1cc(Br)ccc1OCCOCCOCCO2,-20%,?,?,?,?,0.7%,?,-37%
O=C(CSc1nc2ccccc2s1)NNC(=S)Nc1ccc(Br)cc1,?,6%,6%,-22%,-11%,-5.4%,43%,4%
